High-throughput results: PubChem, Fisher Drug Discovery Resource Center
NPYLR7 agonist: mosquito NPYLR7 agonism; HEK293T NPYLR7/Galpha15, GCaMP6s calcium fluorescence; activation, % at 10 µM; 0.15% of 270,000 active; AID 1259423; in the data active = activation above about 40%;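 note: 0% = vehicle and 100% = reference agonist at the receptor; some compounds past the cut are filed as inactive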
NPYLR7 agonist max-min: second read-out of NPYLR7 agonist, no call of its own (marks repeat the call); activation, %; measured here: Max-Min RFU normalised activation; some inactives read as strong as hits;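 span of the calcium signal over five minutes; 0% = vehicle and 100% = native peptide agonist; compound fluorescence can raise it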
* marks the source's active call; other numbers are inactive results; & = joins results of further samples. The list is partial; rates above refer to the full screens.

Values run as follows: NPYLR7 agonist	NPYLR7 agonist max-min
> COC(=O)C[C@@]1(C(=O)OC)N[C@H](CC(C)(C)C)[C@@H]2C(=O)N(C)C(=O)[C@@H]21
→ 9	7
> CC(=O)Nc1ccc(S(=O)(=O)N(CC(=O)N2CCc3sccc3C2c2ccc(Cl)cc2)C2CC2)cc1 (stereo unspecified)
→ 18	20
> COc1ccc(Cl)c2sc(N(CCCN(C)C)C(=O)c3ccccc3SC)nc12
→ 10	5
> COCCN(Cc1nc2ccccc2o1)C(=O)c1cccc2ccccc12
→ 0	-4
> O=C(NCc1cccnc1N1CCOCC1)C1(N2CCCC2)CCCC1
→ 2	1
> CCN(CC)c1onc(-c2ccc(F)cc2)c1CN(CCCOC)C(=O)c1ccc2c(c1)OCO2
→ 6	11
> COCCN(CC(F)F)C(=O)NC(C)c1cn(C)nc1C (stereo unspecified)
→ 2	1
> Cc1cc(C(=O)n2nc(N)cc2C2CCOCC2)c(C)n1C(C)C
→ -14&6	-18&1
> CC(C)c1nc(SCC(=O)N2C(C)CCCC2C)n[nH]1 (stereo unspecified)
→ -2	-1
> Cc1cccn2c(=O)c3cc(C#N)c(=O)n(C)c3nc12
→ 5	3
> Cc1cc(C2CCCN2C(=O)c2ccc(Cn3nc(C)cc3C)cc2)on1 (stereo unspecified)
→ -7	-15
> CN(C)C(=O)c1ccc(Cn2cc(C(=O)NCc3ccc4c(c3)OCO4)sc2=O)cc1
→ 1	-2
> COC(=O)C(C)n1cnc2c(nnn2Cc2ccccc2F)c1=O (stereo unspecified)
→ 7	9
> Cc1cccc(NC(=O)CS(=O)(=O)Cc2nc(-c3cccs3)no2)c1
→ 8	5
> COC(=O)c1ccc(N2C(=O)CSC2c2cccc(OC)c2OC)cc1 (stereo unspecified)
→ -11	-20

Continuation.
Values run as follows: NPYLR7 agonist	NPYLR7 agonist max-min
> Nc1ccc(-n2nncc2C23CC4CC(CC(C4)C2)C3)cc1
→ -6&4	-12&3
> COC(=O)c1ccc(-c2noc(CN(C)Cc3ccc4nsnc4c3)n2)cc1
→ 11	6
> Cc1ccc(S(=O)(=O)N2CCC(Nc3ncccn3)CC2)cc1
→ -2	-2
> Cc1nn(-c2ccc(C(F)(F)F)cn2)c(C)c1CC(=O)N(Cc1cccnc1)CC1CCCO1 (stereo unspecified)
→ 1	12
> CC(C)CC1C(C#N)C(=N)SC(=N)C1C#N (stereo unspecified)
→ 0	1
> Cc1ccc(N=c2scc(C)n2CCCO)c(C)c1
→ -4	-6
> Cc1nc(Oc2ccc(Cl)c(Cl)c2)c2cnn(C)c2n1
→ -3	-3
> Cc1cccc(C(C)(C)CNC(=O)C(C)Sc2nncn2C)c1 (stereo unspecified)
→ 2	2
> O=C1C=C(N2CCCC2)C2(CCCCC2)O1
→ 1	8
> CC(=O)OC(OC(C)=O)C12C=CC(O1)C1C(=O)N(c3ccc(Br)cc3)C(=O)C12 (stereo unspecified)
→ 7	9
> Cc1ccn2c(NCc3ccccc3)c(-c3ccccc3OC(=O)CCC3CCCC3)nc2c1
→ 14	8
> C=CCNC(=O)c1c(O)nc2scc(C)n2c1=O
→ -2	4
> Cc1cnccc1CN(C)C(=O)c1ccc(-c2ccccc2)[nH]1
→ 6	4
> CS(=O)(=O)c1ccc(C(=O)NC2CC(=O)N(CCc3ccccc3)C2)cc1 (stereo unspecified)
→ 5	5
> COCCn1c(SCC(=O)Nc2cc(C)on2)nc2c([nH]c3ccccc32)c1=O
→ 7	6

A run of entries from further up, for reference:
Values run as follows: NPYLR7 agonist	NPYLR7 agonist max-min
> CN(C)C(=O)c1ccc(Cn2cc(C(=O)NCc3ccc4c(c3)OCO4)sc2=O)cc1
→ 1	-2
> COC(=O)C(C)n1cnc2c(nnn2Cc2ccccc2F)c1=O (stereo unspecified)
→ 7	9
> Cc1cccc(NC(=O)CS(=O)(=O)Cc2nc(-c3cccs3)no2)c1
→ 8	5
> COC(=O)c1ccc(N2C(=O)CSC2c2cccc(OC)c2OC)cc1 (stereo unspecified)
→ -11	-20
> Nc1ccc(-n2nncc2C23CC4CC(CC(C4)C2)C3)cc1
→ -6&4	-12&3
> COC(=O)c1ccc(-c2noc(CN(C)Cc3ccc4nsnc4c3)n2)cc1
→ 11	6
> Cc1ccc(S(=O)(=O)N2CCC(Nc3ncccn3)CC2)cc1
→ -2	-2
> Cc1nn(-c2ccc(C(F)(F)F)cn2)c(C)c1CC(=O)N(Cc1cccnc1)CC1CCCO1 (stereo unspecified)
→ 1	12
> CC(C)CC1C(C#N)C(=N)SC(=N)C1C#N (stereo unspecified)
→ 0	1
> Cc1ccc(N=c2scc(C)n2CCCO)c(C)c1
→ -4	-6
> Cc1nc(Oc2ccc(Cl)c(Cl)c2)c2cnn(C)c2n1
→ -3	-3
> Cc1cccc(C(C)(C)CNC(=O)C(C)Sc2nncn2C)c1 (stereo unspecified)
→ 2	2
> O=C1C=C(N2CCCC2)C2(CCCCC2)O1
→ 1	8
> CC(=O)OC(OC(C)=O)C12C=CC(O1)C1C(=O)N(c3ccc(Br)cc3)C(=O)C12 (stereo unspecified)
→ 7	9
> Cc1ccn2c(NCc3ccccc3)c(-c3ccccc3OC(=O)CCC3CCCC3)nc2c1
→ 14	8
> C=CCNC(=O)c1c(O)nc2scc(C)n2c1=O
→ -2	4

More results.
Values run as follows: NPYLR7 agonist	NPYLR7 agonist max-min
> O=C(CC1C(=O)NCCN1Cc1ccccn1)NC1C2CC3CC(C2)CC1C3 (stereo unspecified)
→ 2	-4
> CC(C)COc1nc(-c2ccccc2F)n(-c2cccc(NC(=O)C3CCC3)c2)n1
→ 35	34
> Cc1nn(C)c(C)c1CCC(=O)N1CCC(Oc2ncccn2)CC1
→ 1	-1
> CC(C)[C@H](Nc1ccc(C(F)(F)F)cc1Cl)C(=O)NNC(=O)c1cccc(N(C)C)c1
→ 1	6
> O=C(CC(c1cccc(F)c1)c1cn(Cc2ccccc2)c2ccc([N+](=O)[O-])cc12)NCc1ccc2c(c1)OCO2 (stereo unspecified)
→ 27	24
> O=C(CCCOc1ccccc1F)N1CCSC1
→ -4	-8
> CNC(=O)C1CCC(Cn2c(=O)c3sccc3n(Cc3ccccc3F)c2=O)CC1 (stereo unspecified)
→ 5	-2
> CCCc1nc2ccc(NC(=O)c3cc(OC)c(OC)c(OC)c3)cn2n1
→ -3	-10
> FC(F)(F)c1ccnc(Sc2ccc(Cl)cc2)n1
→ 5	4
> O=C(NCCNc1ncccn1)C1CCN(C(=O)c2ccc(F)cc2F)CC1
→ 15	9
> O=C(c1cncn1-c1ccc(-c2ccc(F)c(F)c2)cc1)N1CCC1
→ 0	0
> CCOC(=O)C1=C(C)N=c2s/c(=C3\C(=O)N(C)c4ccccc43)c(=O)n2C1c1ccccc1 (stereo unspecified)
→ -8	-13
> COc1cccc(Oc2ccc(-n3ccnc3-c3ccoc3)cn2)c1
→ 3	-2
> COc1ccc(-c2nc(CO)cs2)cn1
→ 2	-3
> CCOC(=O)Nc1ccc(C(=O)N(C)C2CCC(C)CC2)cc1 (stereo unspecified)
→ 0	-4

The results go on:
Values run as follows: NPYLR7 agonist	NPYLR7 agonist max-min
> Cc1ccccc1C(=O)N1C(C(=O)O)COC12CCN(C(=O)c1cccc([N+](=O)[O-])c1)CC2 (stereo unspecified)
→ 8	18
> CC(=O)N1CCN(Cc2nnnn2-c2ccc(Cl)cc2)CC1
→ -6	-6
> CC(C)Cn1c(N)c(C(=O)COC(=O)c2cccn2C)c(=O)n(C)c1=O
→ -2	-4
> Brc1ccc(OCc2cn3cccnc3n2)c(Br)c1
→ 3	6
> CC(NC(=O)c1ccc(-n2c(=O)n(C)c(=O)n2C)cc1)c1ccc(F)cc1 (stereo unspecified)
→ -7	-8
> Cc1cccc2c(-c3ccncn3)c[nH]c12
→ 10	4
> COCCOc1nc(-c2ccc(C(F)(F)F)cc2)n(-c2ccc(NC(=O)c3ccc(Br)cc3)cc2)n1
→ 4	4
> CN1CC(n2cnnc2)c2sccc2S1(=O)=O (stereo unspecified)
→ 11	4
> Cc1cc(Cl)ccc1N1CCN(C(=O)CCc2ccccc2)C(C)C1=O (stereo unspecified)
→ 1	-3
> COc1cccc(C(=O)N2CCC(C(NC(=O)c3cccs3)C(=O)NC3CC3)CC2)c1 (stereo unspecified)
→ -8	-7
> Cc1ccc(Nc2nn(CN3CCOCC3)c(=S)s2)cc1
→ 1	-2
> Cc1ccccc1N1C(=O)CC2CS(=O)(=O)CC21 (stereo unspecified)
→ 0	22
> O=C(O)c1ccc(NC(=O)c2cccc(N3C(=O)C4CC=CCC4C3=O)c2)cc1 (stereo unspecified)
→ 4	1
> COc1ccc(CNC(C)=O)cc1S(=O)(=O)NC(C)c1ccccc1C (stereo unspecified)
→ 0	-1
> Cc1cn2c3c(=O)n(Cc4ccccc4)c(=O)n(C)c3nc2n1CC(C)C
→ 0	1

Remaining list, next part
Values run as follows: NPYLR7 agonist	NPYLR7 agonist max-min
> CCN(CC(=O)NC(C)(C)C)Cc1c(C)c(Cl)cc(C(C)C)c1O
→ 4	3
> CC(C)NC(=O)N(Cc1cc(NC(=O)C(C)C)ccc1N(C)C)CC1CC1
→ 14	13
> CCOc1ccc(S(=O)(=O)NCCc2sc3nc(-c4ccc(Cl)cc4)nn3c2C)cc1
→ 9	8
> C=CCOC(=O)C1=C(C)N(C)C(=O)NC1c1ccc(OCc2ccccc2)cc1 (stereo unspecified)
→ -1	-5
> Cc1nnc2sc(-c3ccccc3NC(=S)NC(=O)c3cc4ccccc4o3)nn12
→ -11	-22
> O=C1Nc2ccc(I)cc2C1=Cc1cc(Br)c(O)c(Br)c1
→ -3	-22
> Cc1cc(C(=O)N2CCCC(C)C2)ccc1[N+](=O)[O-] (stereo unspecified)
→ 4	2
> O=C(O)c1cccnc1Sc1ccnc2cc(Cl)ccc12
→ 13	12
> Cc1nn(-c2ccccc2)c2nc(Cc3ccccc3)nc(N3CCCN(C(=O)/C=C/c4ccccc4)CC3)c12
→ -5	-1
> CC(C)(C)C1(O)CC(C(F)(F)F)=NN1C(=O)C1CC1 (stereo unspecified)
→ 4	0
> Cc1ccccc1OCC(O)CN(C)CC1CC(c2ccc(F)cc2)=NO1 (stereo unspecified)
→ -3	1
> Cc1ccc(C(O)=C2C(=O)C(=O)N(CCCN(C)C)C2c2ccccc2F)cc1 (stereo unspecified)
→ 19	14
> O=C1N(c2ccc3c(c2)OCO3)C(c2ccc(Cl)cc2)C1(F)F (stereo unspecified)
→ 6	10
> Cc1ncc(C(=O)OC(C)c2cccc(C#N)c2)s1 (stereo unspecified)
→ -1	-3
> Cc1ccc(N2C(=O)CC(Sc3nc4c(cc3C#N)CC(C(C)(C)C)CC4)C2=O)cc1 (stereo unspecified)
→ -4	-5

Following part.
Values run as follows: NPYLR7 agonist	NPYLR7 agonist max-min
> CC(=O)NCc1ccc(C(=O)N2CCN(CC(C)O)CC2)s1 (stereo unspecified)
→ 2	2
> Cc1n[nH]c(C)c1Sc1ccc(Cl)cc1
→ -1	-3
> CC1CN(C(=O)c2ccccc2[N+](=O)[O-])CCN1C(=O)c1ccccc1[N+](=O)[O-] (stereo unspecified)
→ 9	2
> O=C(NC1CC(=O)N(Cc2cccc(F)c2)C1)c1cccs1 (stereo unspecified)
→ 3	1
> O=C(C1CCC(=O)N(C2CC2)C1)N1CCC(N2CCSCC2)CC1 (stereo unspecified)
→ 10	6
> O=C(Cc1ccc(F)cc1)NCCn1nc(-c2ccco2)ccc1=O
→ -1	-4
> CC(=O)c1ccc(NC(=O)CCn2nc(C)nc2C)cc1
→ 0	7
> CCOCCn1c(CN2CCN(c3ccccc3)CC2)nc2c1c(=O)n(C)c(=O)n2C
→ 31	26
> COc1ccc(O)c(C2CC(=O)Nc3c2c(C)nn3C2CCCCC2)c1 (stereo unspecified)
→ 3	1
> CC(CNS(=O)(=O)c1cc(Cl)c2c(c1)CC(C)O2)Cn1ccnc1 (stereo unspecified)
→ 11	8
> CN1C(=CC=Nc2ccc(I)cc2)C(C)(C)c2ccccc21
→ 19	26
> O=[N+]([O-])c1ccc(NN=C2CC3CC=CC23)c(S(=O)(=O)N2CCOCC2)c1 (stereo unspecified)
→ -12	-6
> CC(C)c1ccc(SCC(=O)NC(=O)c2ccc[nH]2)cc1
→ 0	0
> O=c1ccc2ccc(OCc3ccc(Cl)cc3Cl)cc2o1
→ 3	-1
> Cc1ccc(N2CCCn3c2nc2c3c(=O)n(CCN3CCOCC3)c(=O)n2C)cc1Cl
→ -2	-2

The list continues.
Values run as follows: NPYLR7 agonist	NPYLR7 agonist max-min
> CC(=O)Nc1cccc(NC(=O)CSc2cn(CC(=O)N3CCCCC3)c3ccccc23)c1
→ -4	-5
> COc1ccc(C(=O)Nc2c(-c3ccccc3C)nc3ccc(C)cn23)cc1
→ -6	-5
> CN(CCC#N)C(=S)NC1CC2CCC1C2 (stereo unspecified)
→ -1	36
> COc1cc(NC(=O)c2occc2C)cc(OC)c1
→ 21	16
> CCc1nc(C)nc(N2CCN(C(=O)c3ccccc3Cl)CC2)c1Cc1ccc(F)cc1
→ 1	11
> CSc1nc2ccccc2n1CCO
→ 2	8
> COc1ccc(CC(=O)Nc2cc(C)c3c(=O)oc4ccccc4c3n2)cc1OC
→ -2	-3
> Clc1ccccc1CSc1nnc2c(n1)OC=Nc1ccccc1-2
→ 5	1
> O=C(O)c1ccnc(-n2cncn2)c1
→ 4	4
> O=C(Nc1nnc(COc2ccccc2F)s1)c1ccccc1
→ 4	4
> CCc1cccc2c(C(CC(=O)NCCN3CCCC3)c3ccccc3)cn(CC)c12 (stereo unspecified)
→ 19	32
> COc1cccc(C(=O)OCc2nc3c(C)cccc3c(=O)[nH]2)c1
→ 9	2
> Clc1nc2sccn2c1CN(Cc1ccsc1)CC1CCCO1 (stereo unspecified)
→ -4	-5
> CC/C=C/CC(=O)N1CCC(NS(C)(=O)=O)CC1
→ -3	-6
> CCOc1cn(C)c(C(=O)Nc2ccccc2)cc1=O
→ 4	3
> COc1ccc(C2c3c(nc[nH]c3=O)OC(=N)C2C#N)cc1 (stereo unspecified)
→ 6	-2
> COc1ccc(C2(C(=O)NCCSC3Sc4ccccc4NC3=O)CCCCC2)cc1 (stereo unspecified)
→ -4	-6
> COc1cc(Cl)ccc1OCc1cc(C(=O)N2CCCO2)no1
→ -1	-2
